High-throughput results (PubChem)
T cruzi inh = T. cruzi replication inhibition. T. cruzi beta-gal in NIH3T3, luminescence, 90 h. actives 1.4% (n = 300,000). AID 1885. inhibition, % (no concentration beside the values);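 active = mean inhibition across valid replicates above about 55%, limit read from the data; inconclusive = mean below that limit but half or more replicates reach it; inactive = mean below it, under half of replicates reach it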;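 also: signal also drops with host cell toxicity which is not excluded here; 0% = plate median of DMSO wells and 100% = zero luminescence signal; higher percent means less beta-gal luminescence so fewer parasites; stock transfer was 50 nL into about 50 µL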
Beta cell apopt = blocks beta cell apoptosis; INS-1E cytokine-induced death, ATP luminescence, 48 h; percent of positive-control rescue, neutral wells zero; protection from apoptosis, % (no concentration beside the values); actives 0.8% (n = 300,000); AID 435005;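 active = all replicates at 75% or more, or half of them and the mean; inconclusive = half reach 75% but not the mean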;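 also: 0% = cytokine-treated negative control wells and 100% = positive control rescue; higher means more ATP so stronger rescue from cytokine killing; wells of about 40 µL received 100 nL stock; the first replicate is given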
AF4-AF9 inh = MLL-AF4/AF9 protein interaction inhibition. inhibition, % at 10 µM. actives 0.47% (n = 350,000). P42568. AlphaScreen, biotin-AF4 peptide binding to FLAG-AF9;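 active = every replicate reaching a set inhibition limit, whatever the replicate mean, cut at about 25% in these data; inconclusive = mean inhibition reaches that limit but some replicates miss it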;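 also: 0% = plate neutral control median and 100% = total signal loss; the record names both 10 and 1 µM as test concentration; the first replicate is given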
Target sequence (P42568 whole entry, looked up): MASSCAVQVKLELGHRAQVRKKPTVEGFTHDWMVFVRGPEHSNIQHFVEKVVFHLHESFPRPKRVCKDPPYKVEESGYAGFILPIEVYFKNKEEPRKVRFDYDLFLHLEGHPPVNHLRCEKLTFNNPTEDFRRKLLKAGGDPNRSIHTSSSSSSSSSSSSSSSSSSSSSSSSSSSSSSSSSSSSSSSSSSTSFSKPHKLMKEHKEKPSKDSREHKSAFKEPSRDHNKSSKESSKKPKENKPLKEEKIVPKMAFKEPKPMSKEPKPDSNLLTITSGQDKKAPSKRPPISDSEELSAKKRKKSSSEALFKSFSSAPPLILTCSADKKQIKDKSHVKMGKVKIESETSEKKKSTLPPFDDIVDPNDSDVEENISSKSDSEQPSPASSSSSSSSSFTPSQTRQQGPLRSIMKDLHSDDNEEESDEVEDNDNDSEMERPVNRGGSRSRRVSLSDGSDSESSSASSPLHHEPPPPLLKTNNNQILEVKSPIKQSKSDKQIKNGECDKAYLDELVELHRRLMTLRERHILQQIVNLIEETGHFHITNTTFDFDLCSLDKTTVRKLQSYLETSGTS
Vif TR-FRET = HIV-1 Vif–A3G interaction blockers – biochemical, TR-FRET, GST-Vif 1-94, biotin-A3G peptide, dose response retest, primary screen (AID 1117319); TR-FRET GST-Vif / biotin-A3G peptide binding; higher % means a stronger effect; test concentration not given here; strong numbers were not always called active; inhibition, %, or IC50 in µM where a hit was titrated; actives 0.57% (n = 260,000);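 active = above the screen mean plus three standard deviations and confirmed in dose response; inconclusive = results disagree or hit not tested in dose response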;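 also: Vif residues 1-94 fused to GST binding biotinylated APOBEC3G peptide 110-148; 0% = full assay without inhibitor and 100% = GST in place of GST-Vif; retest series ran down from 100 µM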
RanGTP-Impb inh = disruptors of Ran-importin-beta complex formation – biochemical, FRET, CFP-Ran, YFP-importin-beta, homogeneous, primary screen; cell-free CFP-Ran/YFP-importin-beta FRET ratio; inhibition, % (test concentration not listed); actives 1.1% (n = 300,000);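 active = most replicates above 15%; inconclusive = exactly half above 15%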;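 also: 0% = DMSO wells and 100% = Ran loaded with GDP instead of GTP; wells of about 40 µL received 100 nL stock; the first replicate is given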
LANA-H2B inh = blocks KSHV LANA binding to histone H2A/H2B. cell-free LANA-H2A/H2B peptide, fluorescence polarization. inhibition, % (test concentration not listed). AID 2629. Q9QR71. actives 0.6% (n = 320,000); in the data active = inhibition mostly above about 10%, no sharp cut-off; inactive = mostly below about 6.7%;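 also: stock transfer was 7.5 nL into about 10 µL; 0% = median of vehicle wells and 100% = median of positive control wells; one replicate is shown; the record names a cut of 25% in any replicate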
Calb FLC = C. albicans growth modulation with fluconazole. C. albicans CaCi-2 (fluconazole-resistant clinical isolate) + fluconazole, Alamar Blue growth, 48 h. AID 1979. actives 0.57% (n = 300,000). growth inhibition, % (no concentration beside the values);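 active = most replicates above 75%; inconclusive = exactly half above 75%; inactive = most below 75%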;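 also: all wells also contain fluconazole at 8 µg/ml as a sub-toxic cotreatment; 0% = median of DMSO wells and 100% = median of geldanamycin control wells; wells of about 8 µL received 7.5 nL stock; the first replicate is given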
A1 inh = inhibitors of the anti-apoptotic protein A1, read as caspase activation. caspase activation, % (concentration not given with the values). actives 0.066% (n = 330,000). MEF A1-2A-BIM cells, Caspase-Glo 3/7 luminescence, 3 h; percent of clofoctol response, vehicle zero;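 active = over half of replicate activation scores above 10%, or exactly half above 10 with the replicate mean above 10; inconclusive = replicate mean below 10 yet half the replicates above 10; inactive = over half of replicates below 10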;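 also: wells of about 30 µL received 50 nL stock; many hits fall short of the cut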
Starred values were filed as active, the others as inactive; ? = inconclusive; · = not tested or not shown; & = joins results of further samples.

Results follow in this order: T cruzi inh	A1 inh	LANA-H2B inh	Calb FLC	Beta cell apopt	Vif TR-FRET	AF4-AF9 inh	RanGTP-Impb inh
Cc1cc(-c2csc(N)n2)c(C)n1CCc1ccccc1
  1	0.5	8.4	-3	-4	29%	·	1.0
CCn1c(-c2cc(-c3ccccc3OC)nc3ccccc23)n[nH]c1=S
  5	0.3	0.0	7	46	?	-0.6	-0.3
O=[N+]([O-])c1nn(-c2cccc(Cl)c2)n(O)c1=NCc1cccnc1
  16	-0.6	-4.4	5	2	·	2.8	3.2
CCN(CCNCC(O)COCc1ccc(Cl)cc1)c1cccc(C)c1 (stereo not given)
  50	-0.7	-5.4	-16	6	-3%	29*	-2.7
Cc1ccc(C(=O)NCc2ccco2)cc1S(=O)(=O)Nc1cccc(C)c1C
  -10	-1.0	2.5	-11	-2	4%	·	-5.0
CC(C)CN(CC(C)C)C(=O)CC(=O)NC(=O)c1ccc(Cl)cc1
  -19	-1.5	1.3	-3	1	6%	·	-0.2
COc1ccc(C2CC(c3ccc(Cl)cc3Cl)n3nc(N)nc3N2)cc1 (stereo not given)
  22	-0.4	-4.0	12	-4	10%	0.4	4.3
CCOC(=O)C1=C(c2ccccc2)O/C(=C(/C(=O)OC)C(F)(F)F)S1
  44	-1.2	-2.0	-10	8	-42%	2.7	6.7
CC(C)c1ccc(C(=O)NNC(=O)c2ccncc2)cc1
  -15	0.2	-4.1	12	2	·	-8.4	7.8
O=C(NCCCN1CCOCC1)C(=O)NCCc1ccccc1
  -7	-0.4	1.9	-21	4	7%	-4.1	2.3
CCCC(=O)Nc1ccc2c(c1)nc1n2CCSC1
  -3	0.0	-1.0	-2	-2	0%	·	1.1
Cc1c(C(=O)N2CCOCC2)cc(C(C)(C)C)n1-c1ccccc1
  12	0.3	0.5	2	-3	-8%	2.7	-1.1
CCOC(=O)N1CCC(N(CCN(C)C)C(=S)Nc2cccc(OC)c2)CC1
  -4	0.6	2.7	1	2	7%	-1.6	-1.1
Cc1ccc(NS(=O)(=O)c2csc(C(N)=O)c2)c(C)c1
  -9	0.7	1.9	1	-2	-8%	-0.5	-3.1
COc1ccc(/C=N/NC(=O)CN(c2ccc(OC)cc2)S(=O)(=O)c2ccccc2)cc1
  5	0.0	0.3	9	-12	11%	6.9	-3.5
Cc1sc(NC(=O)c2ccco2)c(CN2CCC(C)CC2)c1C
  21	-1.3	2.9	-1	-3	5%	·	-0.9
CCOC(=O)N1CCN(Cc2ccc3c(c2)OCO3)CC1
  -2	-0.4	-2.1	-7	2	·	-27	-0.7
O=C(NCCCN=C1NS(=O)(=O)c2ccccc21)c1ccc(S(=O)(=O)N2CCOCC2)cc1
  9	-0.2	-5.8	17	-3	9%	7.6	?
CC(C)c1nc2ccc(C(=O)O)cc2[nH]1
  -22	0.2	5.4	2	1	1%	6.5	8.6
CC(C)NC(=O)C1CCN(C(=O)c2ccc(-c3ccccc3)cc2)CC1
  -1	1.1	-4.3	-8	-2	29%	·	5.6
Cc1cc(C)c(NC(=O)CCN2C(=O)c3ccccc3S2(=O)=O)c(C)c1
  -8	0.4	-5.5	9	1	1%	-1.6	6.1
CCOc1ccc(NC(=O)CCC(=O)NNC(=O)c2ccc(Br)o2)cc1
  -5	-0.2	-4.2	-1	5	·	-9.9	0.6
Cc1ccc(S(=O)(=O)N2CCN(C(=O)c3c(C)nn(-c4ccccc4)c3Cl)CC2)cc1
  11	·	·	19	·	19%	·	2.4
Cc1ccc(C(=O)NCCc2ccccn2)cc1S(=O)(=O)N1CCOCC1
  9	-1.1	0.6	4	-7	2%	·	?
O=C(Nc1ccccc1N1CCCC1)C1CCN(C(=O)c2ccc(Cl)cc2)CC1
  7	0.1	7.3	-1	2	7%	-4.1	0.9
C=CCn1c(Cc2ccc(OCC)cc2)nnc1SCC(N)=O
  -15	0.3	3.0	0	-10	4%	·	-4.6
Cc1cccc(OCc2nnc(SCC(=O)NC3CCCCC3)n2C)c1
  14	-0.2	-1.7	9	1	·	-12	8.0
Cc1nn(-c2ccccc2)c(C)c1NC(=O)COC(=O)CCCOc1ccccc1
  -11	0.8	1.2	-1	-2	-9%	-0.2	-8.1
CCCOC(=O)c1ccc(NC(=O)Oc2ccccc2)cc1
  -6	0.1	8.3	12	-9	-7%	-26	2.8
CN(C)c1ccc(C=C2C(=O)OC(C)(C)OC2=O)cc1
  -1	0.5	-11	-7	-6	7%	0.9	-2.3
COc1ccc(C(=O)/C=C/C(=O)N(CC(=O)NC2CCCCC2)Cc2ccccc2)c(O)c1
  60*	·	·	-24	·	13%	-1.8	-1.9
CCCc1nc2ccccc2c2nc(N)nn12
  -16	1.1	-1.1	1	-11	0%	·	-2.2
COc1cc(Nc2cc(C)nc3nc(C)nn23)cc(OC)c1OC
  1	0.0	2.9	-1	-4	11%	-1.6	-0.2
CC(C(=O)O)n1c(C(F)(F)F)nc2ccccc21 (stereo not given)
  -24	1.1	7.2	-7	4	3%	·	0.4
COc1ccc(-c2cnc3ncnn3c2N)cc1
  -17	0.2	4.1	0	-4	-1%	-0.1	-2.4
CCOC(=O)c1cccc(NC(=O)c2c(NCc3ccccc3)[nH]c(=O)[nH]c2=O)c1
  -4	2.1	-7.1	-6	·	·	·	3.6
O=C(NCc1cccnc1)/C(=C/c1ccc(-c2cccc(C(F)(F)F)c2)o1)NC(=O)c1ccccc1
  35	0.1	2.7	19	0	28%	·	-2.4
O=C(c1ccccc1F)N1CCN(c2ccc([N+](=O)[O-])c3cccnc23)CC1
  7	0.9	-2.3	20	3	?	13	-4.2
COc1ccc(S(=O)(=O)N2CCCCCC2)cc1NC(=O)CN1C(=O)CNC1=O
  ·	0.6	4.9	·	3	1%	-5.5	·
COc1cccc(CN2C(=O)C(C)N(C(=O)c3ccccc3)c3ccccc32)c1 (stereo not given)
  8	0.0	-0.7	-1	9	-3%	-1.8	-0.1
CCOC(=O)CNC(=O)CN1CCC(c2nc3ccccc3[nH]2)CC1
  -3	0.1	-1.8	0	·	·	-1.1	2.4
Cc1ccc(C(=O)NCCc2sc(C)nc2C)cc1
  -5	-0.2	3.2	-1	-2	-1%	·	1.2
COc1ccc(C2CC(c3ccccc3)=NN2C(=O)COC(=O)c2nc3nccc(C)n3n2)cc1 (stereo not given)
  -4	0.1	-1.5	7	-2	8%	-1.3	-1.8
CCOc1nnc(C)c2c(C)n(-c3cccc(Cl)c3)nc12
  -11	0.5	0.5	8	6	1%	·	2.0
CC(=O)Nc1ccc(C(=O)N/N=C/c2cccnc2)cc1
  -2	-0.7	-1.1	3	-3	·	0.8	-5.0
Cn1c(SCC(=O)c2ccc3c(c2)OCO3)nnc1-c1ccccn1
  -6	0.4	1.7	-7	-2	8%	·	-2.0
CC(C)n1nnnc1SCC(=O)Nc1ccccc1N1CCOCC1
  -5	0.8	0.9	1	-7	2%	·	-0.4
CCSc1nc(-c2cccnc2)ccc1C#N
  9	-0.1	-2.2	-27	0	-7%	-2.3	?
CCOC(=O)c1ccc(CNC(=O)C2CCC(=O)N(Cc3cccc(OC)c3)C2)o1 (stereo not given)
  -2	0.9	-1.7	-5	-2	-1%	-0.6	1.1
CCOC(=O)COn1c(=O)c(-c2ccc(OCC)cc2)[n+]([O-])c2ccccc21
  -6	-0.4	-1.3	-6	-5	-7%	0.0	-0.8
COc1ccc(-c2ccc3oc(-c4ccc(OC)cc4)c(C#CC4(O)CCCCC4)c3c2)cc1
  32	-0.9	1.5	2	0	·	·	1.5
CCCCc1c(O)cc(C)[nH]c1=O
  -9	0.3	4.9	-2	-4	12%	-1.4	2.1
CCOC(=O)c1oc2ccc(S(=O)(=O)n3nc(-c4cc(OC)c(OC)c(OC)c4)cc3N)cc2c1C
  27	0.4	-3.2	20	-3	8%	2.0	-4.7
CC(C)(C)c1ccc(S(=O)(=O)N2CCCCC2C(=O)NCc2ccccn2)cc1 (stereo not given)
  13	1.1	-0.5	-26	10	-2%&-1%	1.8	4.4
Cc1ccc2c(c1)NC(=O)C(CC(=O)NCCN(C)C)O2 (stereo not given)
  -12	-0.5	2.9	-3	-4	0%	-0.3	11
COC(=O)C1CSC(C(=O)OC)N1C(=O)Nc1ccc(Cl)c(Cl)c1 (stereo not given)
  -19	0.8	-0.6	-1	-3	-2%	·	2.0
CC(C)(C)c1ccc(-c2ncccc2O)cc1
  ·	-0.8	0.0	0	-7	7%	2.1	·
O=C(COC(=O)c1ccc([N+](=O)[O-])cc1)NC1CCCC1
  -5	1.2	-0.3	4	-3	-4%	-5.1	-2.6
O=C(CN(C(=O)c1nsc(Cl)c1Cl)c1cccc(F)c1)NC1CCCC1
  -10	-0.3	1.7	2	0	·	1.1	4.3
Nc1cc(C(F)(F)F)ccc1C(=O)O
  5	-0.4	0.5	-3	-1	3%	-1.3	8.1

Following part.
Results follow in this order: T cruzi inh	A1 inh	LANA-H2B inh	Calb FLC	Beta cell apopt	Vif TR-FRET	AF4-AF9 inh	RanGTP-Impb inh
COc1cc(/C=N\NC(=O)CN2CCOCC2)ccc1OCC(=O)Nc1ccc(C)c(C)c1
  -9	0.9	6.5	-8	0	-2%	·	5.6
Cc1noc(C)c1S(=O)(=O)Nc1ccc2c(c1)C(=O)N([C@H](C)CO)C[C@H](C)[C@@H](CN(C)C(=O)NC1CCCCC1)O2
  ·	0.4	-1.2	·	2	·	-8.4&1.7	·
COc1ccc(/C=N/Nc2nc(-c3ccc(Cl)cc3)cc(C(F)(F)F)n2)c(OC)c1
  4	-1.2	-6.5	-1	7	10%	·	-0.3
Cc1ccsc1C=Nc1ccc(O)cc1
  -17	-0.6	-0.5	21	·	17µM*	·	-1.7
O=C(CSc1nc2ccccc2s1)NCc1ccc2c(c1)OCO2
  9	0.1	-2.8	0	-3	2%	·	0.6
COc1cccc(Nc2ncc(C#N)c(N)n2)c1
  -10	-1.6	-4.2	0	6	6%	-2.2	-2.5
COc1ccc(NC(=S)NC(=O)c2ccc(Br)o2)cc1
  7	-3.0	-4.9	14	0	·	·	0.6
CC(=O)c1cc2c(cc1NC(=O)C1CCC1)OCO2
  -6	0.7	6.6	10	2	·	1.1	-1.4
O=C(c1ccoc1)N1CCC2(CC1)Oc1ccc(F)cc1C(=O)C21CC(c2ccc(Cl)cc2)=NO1 (stereo not given)
  34	0.3	4.4	38	5	4%	-5.7	2.9
CN(CCC#N)C(=O)c1cc2c(Cl)nc3ccccc3c2s1
  -12	1.0	-6.4	1	-3	-33%	-1.0	3.0
COc1ccc(C2=NN(C(=O)c3ccccc3)C(c3ccccc3)C2)c(O)c1 (stereo not given)
  21	-0.3	4.2	0	7	-11%	-3.4	?
O=C(O)CC/C(=N/NC(=O)CNC(=O)Cc1ccc(Cl)cc1)c1ccccc1
  -13	-0.7	2.3	2	-11	-6%	9.0	0.7
O=C(c1ccc(C#CC2(O)CCCCC2)cc1)N1CCN(Cc2ccccc2)CC1
  13	-0.6	0.8	-16	-1	-2%	·	4.6
CC(=O)c1ccc(N2CCN(C(=O)Nc3ccc(C(C)C)cc3)CC2)cc1
  -1	0.2	-6.1	17	14	-10%	2.6	4.1
